Bioassay records: PubChem, National Center for Advancing Translational Sciences (NCATS)
D2 ag – human D2 receptor agonism in beta-arrestin assay. DiscoveRx PathHunter D2 beta-arrestin, luminescence, 90 min; 100% = 57 uM dopamine signal. activation, % (no concentration beside the values). 0.084% of 360,000 active; in the data active = activation above about 40%; inconclusive = about 15% to 40%; inactive = below about 15%; note: compound concentration not given in the record; the text of the record calls up to 30% inactive
Target sequence (P14416 whole entry, looked up): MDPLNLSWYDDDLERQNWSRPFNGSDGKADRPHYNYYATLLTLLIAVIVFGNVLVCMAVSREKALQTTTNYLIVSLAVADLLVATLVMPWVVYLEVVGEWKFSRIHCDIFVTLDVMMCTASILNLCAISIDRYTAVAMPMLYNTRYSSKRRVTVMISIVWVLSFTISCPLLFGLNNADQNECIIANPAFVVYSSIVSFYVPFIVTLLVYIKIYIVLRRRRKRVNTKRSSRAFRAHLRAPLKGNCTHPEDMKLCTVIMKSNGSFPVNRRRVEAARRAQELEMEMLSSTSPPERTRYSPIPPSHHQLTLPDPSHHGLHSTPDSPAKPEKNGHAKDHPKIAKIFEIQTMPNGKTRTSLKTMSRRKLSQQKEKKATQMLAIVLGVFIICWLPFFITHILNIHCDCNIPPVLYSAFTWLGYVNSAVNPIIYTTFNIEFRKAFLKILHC
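Agonist mode: compounds alone added to overnight-plated D2 PathHunter cells for 90 min at 37 C, with 57 uM final dopamine (EC100) defining full response. Beta-arrestin recruitment detected by chemiluminescent reagent, read after 1 h at ambient temperature.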
PINK1 expr mod – PINK1 expression modulation | Potency, µM (series often up to 76.6 µM), for inactives: at the top dose activation (PINK1 increase), hits mostly activators | PINK1 immunofluorescence, high-content cytometry, 24 h | 0.2% of 410,000 active; active = well fitted activation curve with a large enough effect; inconclusive = small, poorly fitted or top-dose-only effect; inactive = flat fitted curve, though single readings scatter; cell line not stated here;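 note: potency is the fitted concentration of half-maximal effect; % of control where 0% means no effect; nearly all actives have a fitted effect of over 65% in size; a mitochondrial uncoupler was the plate control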
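Compound titrations (5 concentrations, 24 h) on a stable cell line; DMSO and CCCP controls. Endpoint: fixed-cell PINK1 immunofluorescence with mitochondrial, cell and nuclear markers, scanned by microplate cytometer.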
TRPML1 inh – blocks the human TRPML1 channel. 0.02% of 390,000 active. activity change, negative = inhibition, % (no concentration beside the values). TRPML1-inducible cells, Ca2+ dye fluorescence, FDSS; stronger effect = lower value; inhibition of EC80 agonist-evoked calcium signal; in the data active means activity change below about -50%; inconclusive means about -30% to -50%; inactive means above about -30%;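 note: stimulus is agonist 54-4 at its EC80 concentration; % is set by controls: 0 for no effect and ±100 for the full control effect; compound concentration not given in the record; the text of the record puts the active cut at -80%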
Target sequence (Q9GZU1 whole entry, looked up): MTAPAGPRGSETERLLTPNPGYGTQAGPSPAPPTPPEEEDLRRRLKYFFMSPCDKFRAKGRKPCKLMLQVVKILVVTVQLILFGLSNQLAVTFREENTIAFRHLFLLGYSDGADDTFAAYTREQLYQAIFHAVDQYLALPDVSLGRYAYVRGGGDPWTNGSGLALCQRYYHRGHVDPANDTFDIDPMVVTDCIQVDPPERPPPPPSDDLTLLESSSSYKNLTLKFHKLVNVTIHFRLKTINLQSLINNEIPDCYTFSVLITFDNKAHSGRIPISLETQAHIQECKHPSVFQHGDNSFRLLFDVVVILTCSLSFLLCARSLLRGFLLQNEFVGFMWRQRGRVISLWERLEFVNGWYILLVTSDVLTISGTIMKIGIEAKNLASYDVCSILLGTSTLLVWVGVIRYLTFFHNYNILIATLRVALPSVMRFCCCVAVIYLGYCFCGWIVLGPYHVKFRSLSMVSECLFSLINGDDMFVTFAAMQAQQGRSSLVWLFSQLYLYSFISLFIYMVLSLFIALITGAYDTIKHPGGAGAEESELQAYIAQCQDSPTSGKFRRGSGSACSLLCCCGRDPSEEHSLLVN
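TRPML1-DL cells, Tet-induced overnight (~16 h, 37 °C) at 1,500 cells/well, were loaded with Ca8 no-wash dye plus quencher for 45-90 min at room temperature. Compounds were pinned during FDSS kinetic reading; agonist 54-4 at EC80 (4 uM final) then added.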
TRPML1 agonist – human mucolipin-1 channel agonism; TRPML1-expressing cells, Ca2+ dye fluorescence, FDSS; host cell line not named in the record; reference of the full effect not given here; activation, % (no concentration beside the values); 0.12% of 410,000 active; AID 624414; in the data active = activation above about 50%; inconclusive = about 30% to 50%; inactive = below about 30%; note: 0% is about no effect; the text of the record puts the active cut at 80%
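Kinetic FDSS Ca2+ read in Tet-induced TRPML1-DL cells (ABD Ca8 dye plus quencher, 45-90 min RT loading): baseline, then compound, then 110 s agonist window; EC80 agonist 54-4 at 4uM final added afterwards for a 110 s antagonist window.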
D2 PAM – positive allosteric modulators of human D2 dopamine receptor; DiscoveRx D2 beta-arrestin cells, luminescence, 90 min; 100% = 57 uM dopamine signal; AID 624464; 0.23% of 360,000 active; potentiation, % (no concentration beside the values); P14416; active = potentiation of 50% or more; inconclusive = 30% to 50%; inactive = 30% or less;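 note: compound concentration not given in the record; tested on top of an EC20 dose of dopamine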
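PathHunter beta-arrestin assay in DiscoveRx D2 cells. Compounds were added with an EC20 of dopamine (50 nM final) for 90 min at 37 deg C. Luminescence was read 1 h after detection reagent, with 57 uM dopamine as the EC100 control.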
Six1-Eya2 inh – Six1/Eya2 interaction inhibition; AlphaScreen GST-Six1/His-Eya2 binding, biochemical; stronger effect = lower value; control for the full effect not named in the record; Q15475+O00167; activity change, % (concentration not given with the values); 0.56% of 360,000 active; in the data active = activity change below about -65%; inconclusive = about -30% to -65%; inactive = above about -30%; note: % is set by controls: 0 for no effect and ±100 for the full control effect
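Compounds are tested against tagged Six1 and Eya2 proteins bridged by glutathione donor and nickel acceptor beads; after a one-hour incubation at 37 °C without light, AlphaScreen emission is recorded.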
Active calls of the source: *; & = joins results of further samples; [ ] = remark or other dose.

For CC(C)N(C(=O)[C@H]1C[C@H](CC(=O)NCC23CC4CC(CC(C4)C2)C3)C(=O)N2CCc3c([nH]c4ccc(Cl)cc34)[C@]12C)C(C)C the results were D2 ag -2.5, PINK1 expr mod 35µM*, TRPML1 inh 22, TRPML1 agonist -0.9, D2 PAM -1 and Six1-Eya2 inh 2.
For COc1ccc(C(=O)OCC(=O)NC2CCCCCC2)cc1OC the results were D2 ag -0.8, PINK1 expr mod -0.6%, TRPML1 inh 38, TRPML1 agonist 0.3, D2 PAM -3 and Six1-Eya2 inh -1.
O=C(Nc1ccccc1)c1ccccc1C(=O)N1CCCCC1 was read as D2 ag -7.1, PINK1 expr mod 2.2%, TRPML1 inh 0, TRPML1 agonist 0.2, D2 PAM 11 and Six1-Eya2 inh 4.
CC(C)NCC(=O)Nc1c2c(nc3ccccc13)CCC2 was read as D2 ag 1.2, PINK1 expr mod -0.6%, TRPML1 inh 2, TRPML1 agonist -0.2, D2 PAM -7 and Six1-Eya2 inh 1.
`Clc1ccc(CSc2nnc(-c3ccncc3)s2)cc1` gave D2 ag -1.3, PINK1 expr mod inconclusive, TRPML1 inh 37, TRPML1 agonist 2.4, D2 PAM -36 and Six1-Eya2 inh 10.
`COc1ccc(C(=O)Nc2cc(C(F)(F)F)ccc2-n2cnc3ccccc32)cc1` gave D2 ag 1.5, PINK1 expr mod -0.8%, TRPML1 inh 43, TRPML1 agonist -0.8, D2 PAM -5 and Six1-Eya2 inh 4.
O=[N+]([O-])c1ccccc1CN1CCN(Cc2ccc3ccccc3c2)CC1 was read as D2 ag 3.0, PINK1 expr mod 0.5%, TRPML1 inh 2, TRPML1 agonist -1.1, D2 PAM -7 and Six1-Eya2 inh inconclusive.
`CC(C)c1ccc(NC(=O)CSC(C)c2nc3ccccc3c(=O)[nH]2)cc1` (configuration not stated) gave D2 ag -0.8, PINK1 expr mod 2.0%, TRPML1 inh -1, TRPML1 agonist 0.4, D2 PAM -9 and Six1-Eya2 inh 1.
COc1ccc(S(=O)(=O)N2CCN(C(=O)c3c(C)nn(-c4ccccc4)c3Cl)CC2)cc1 was read as D2 ag -3.1, PINK1 expr mod -0.5%, TRPML1 inh -2, TRPML1 agonist -0.2, D2 PAM -33 and Six1-Eya2 inh 5.
`COc1ccc(C(=O)Nc2ccc3c(c2)CCCN3C(=O)c2cccs2)c(OC)c1` gave D2 ag 5.5, PINK1 expr mod -1.4%&1.8%, TRPML1 inh 46&-6, TRPML1 agonist 3.2&2.5, D2 PAM 3 and Six1-Eya2 inh inconclusive.
For Cc1ccc(SCCC(=O)Nc2ccccc2Br)cc1 the results were D2 ag -1.8, PINK1 expr mod 0.8%, TRPML1 inh 26, TRPML1 agonist 2.6, D2 PAM 1 and Six1-Eya2 inh 5.
`COc1ccccc1NC(=O)N1CCCC1C(=O)NCc1ccccc1Cl` (configuration not stated) gave D2 ag -2.0, PINK1 expr mod -0.6%, D2 PAM -1 and Six1-Eya2 inh -3.

The closing 2 compounds of the part above lead into the next:
For Cc1ccc(SCCC(=O)Nc2ccccc2Br)cc1 the results were D2 ag -1.8, PINK1 expr mod 0.8%, TRPML1 inh 26, TRPML1 agonist 2.6, D2 PAM 1 and Six1-Eya2 inh 5.
`COc1ccccc1NC(=O)N1CCCC1C(=O)NCc1ccccc1Cl` (configuration not stated) gave D2 ag -2.0, PINK1 expr mod -0.6%, D2 PAM -1 and Six1-Eya2 inh -3.
Screening CN(C)CCN(Cc1cc2cc3c(cc2[nH]c1=O)OCO3)C(=S)NCC1CCCO1 (configuration not stated) returned D2 ag 0.4, PINK1 expr mod 0.5%, TRPML1 inh -4, TRPML1 agonist -0.2, D2 PAM -4 and Six1-Eya2 inh 13.
Cc1sc2nc(CSC(C)C(=O)Nc3ccc(Cl)cn3)[nH]c(=O)c2c1C (configuration not stated) was read as D2 ag -2.2, PINK1 expr mod 8.1%, TRPML1 inh 4, TRPML1 agonist 0.5, D2 PAM -1 and Six1-Eya2 inh 5.
For Cc1cc(=O)[nH]c(Nc2c(C)n(C)n(-c3ccccc3)c2=O)n1 the results were D2 ag -2.4, PINK1 expr mod 1.1%, TRPML1 inh 4, TRPML1 agonist -0.2, D2 PAM 3 and Six1-Eya2 inh -14.
Screening CCOc1ccc(C(C)NC(=O)C2CCC2)cc1 (configuration not stated) returned D2 ag -4.0, PINK1 expr mod -1.0%, TRPML1 inh 18, TRPML1 agonist -0.8, D2 PAM -17 and Six1-Eya2 inh 0.
Screening CC1CCC(C(=O)NC(C(=O)NCc2cccnc2)C(C)C)CC1 (configuration not stated) returned D2 ag 0.0, PINK1 expr mod 1.9%, TRPML1 inh 7, TRPML1 agonist -0.7, D2 PAM -6 and Six1-Eya2 inh 0.
Screening Cc1ccc(O)c(NS(=O)(=O)c2cccc3nsnc23)c1 returned D2 ag -1.9, PINK1 expr mod 1.3%, TRPML1 inh 17, TRPML1 agonist 0.3, D2 PAM 5 and Six1-Eya2 inh -6.
Screening O=C(Nc1cccc(C(F)(F)F)c1)Nc1ccc2[nH]c(=O)[nH]c2c1 returned D2 ag -0.1, PINK1 expr mod 1.1%, TRPML1 inh 5, TRPML1 agonist 0.0, D2 PAM -9 and Six1-Eya2 inh -2.
COC(=O)CCC(=O)Nc1ccc(S(=O)(=O)N2CCCCCC2)cc1 was read as D2 ag -5.5, TRPML1 inh -5, TRPML1 agonist -0.2, D2 PAM -6 and Six1-Eya2 inh 0.
For CC1(C(=O)NS(=O)(=O)Cc2ccccc2C(F)(F)F)CCN1C(=O)c1ccco1 (configuration not stated) the results were D2 ag 3.0, PINK1 expr mod 1.7%, TRPML1 agonist 0.1, D2 PAM -1 and Six1-Eya2 inh -5.
`O=C(O)c1ccc(-c2ccccc2)[nH]c1=O` gave D2 ag -1.5, PINK1 expr mod 1.3%, D2 PAM -2 and Six1-Eya2 inh -1.
CCC(=O)c1ccc(OCC(=O)OCC(=O)Nc2cccc(S(=O)(=O)N3CCCC3)c2)cc1 was read as D2 ag 4.3, PINK1 expr mod 0.8%, TRPML1 inh 5, TRPML1 agonist -0.7, D2 PAM -6 and Six1-Eya2 inh 6.
For COc1cc(OC)c(N(C)S(=O)(=O)c2cccc(C(=O)OCC(=O)N(C)C3CCCCC3)c2)cc1Cl the results were D2 ag -4.2, PINK1 expr mod -0.4%, TRPML1 inh -1, TRPML1 agonist -0.9, D2 PAM -9 and Six1-Eya2 inh -13.

An excerpt from the list above, as a working copy:
CCC(=O)c1ccc(OCC(=O)OCC(=O)Nc2cccc(S(=O)(=O)N3CCCC3)c2)cc1 was read as D2 ag 4.3, PINK1 expr mod 0.8%, TRPML1 inh 5, TRPML1 agonist -0.7, D2 PAM -6 and Six1-Eya2 inh 6.
For COc1cc(OC)c(N(C)S(=O)(=O)c2cccc(C(=O)OCC(=O)N(C)C3CCCCC3)c2)cc1Cl the results were D2 ag -4.2, PINK1 expr mod -0.4%, TRPML1 inh -1, TRPML1 agonist -0.9, D2 PAM -9 and Six1-Eya2 inh -13.

Additional results.
For O=C1CCC(=O)N1c1ccc(-c2nc3sc4c(c3c(=O)o2)CCC4)cc1 the results were D2 ag 3.4, PINK1 expr mod -0.3%, TRPML1 inh -7, TRPML1 agonist 0.5, D2 PAM -8 and Six1-Eya2 inh 4.
For COC(=O)c1c(C)nc(C)c(C(=O)OC)c1-c1cccs1 the results were D2 ag -6.0, PINK1 expr mod 1.7%, TRPML1 inh -3, TRPML1 agonist 0.3, D2 PAM -30 and Six1-Eya2 inh 25.
`O=S(=O)(Cc1ccccc1Cl)CC(O)COc1ccccc1Cl` (configuration not stated) gave D2 ag -1.3, PINK1 expr mod -1.8%, TRPML1 inh 6, TRPML1 agonist -0.9, D2 PAM -5 and Six1-Eya2 inh 12.
For COCCN(C(=O)c1ccc(OC2CCN(S(=O)(=O)N(C)C)CC2)cc1)C(C)C the results were D2 ag 1.8, PINK1 expr mod 0.1%, D2 PAM 15 and Six1-Eya2 inh 0.
CC(C)=CCCC(C)CN1CCC(N2CCC(C(=O)N3CCOCC3)CC2)CC1 (configuration not stated) was read as D2 ag -8.0, PINK1 expr mod 1.6%, TRPML1 inh -2, TRPML1 agonist 0.8, D2 PAM -7 and Six1-Eya2 inh -1.
For CCOC(=O)CC1(NC(=O)C2CCC(=O)N(CCc3ccc(OC)cc3)C2)CCCCC1 (configuration not stated) the results were D2 ag -0.2, PINK1 expr mod -0.6%, TRPML1 inh 6, TRPML1 agonist -0.4, D2 PAM -9 and Six1-Eya2 inh 4.
COc1ccc(CNC(=O)CCc2c(C)c3cc4c(C)coc4c(C)c3oc2=O)cc1OC was read as PINK1 expr mod -0.3%, TRPML1 inh -10 and TRPML1 agonist 0.0.
Screening CS(=O)(=O)N1CCN(c2ccccc2NC(=S)NC(=O)c2ccccc2[N+](=O)[O-])CC1 returned D2 ag 7.8, PINK1 expr mod -1.1%, TRPML1 inh -17, TRPML1 agonist 0.1, D2 PAM 6 and Six1-Eya2 inh -10.
For Cc1nc2c(-c3ccccc3)c(C)[nH]n2c(=O)c1Cc1ccccc1 the results were D2 ag 5.4, PINK1 expr mod 0.5%, TRPML1 inh 23, TRPML1 agonist -0.7, D2 PAM -13 and Six1-Eya2 inh inconclusive.
Screening COc1ccc(NC(=O)CN2CCN(c3ccc(F)cc3)CC2)cc1 returned D2 ag -3.8, PINK1 expr mod 5.5%, TRPML1 inh 12, TRPML1 agonist -0.5, D2 PAM -5 and Six1-Eya2 inh 2.
O=C(c1nsc(Cl)c1Cl)N1CCCCC1 was read as D2 ag -1.0, PINK1 expr mod -3.4%[38.3 µM], TRPML1 inh 4, TRPML1 agonist 0.6, D2 PAM 1 and Six1-Eya2 inh 8.
Screening N#Cc1c(Cl)cccc1N1CCC(C(N)=O)CC1 returned D2 ag -5.3, PINK1 expr mod 0.4%, TRPML1 inh 20, TRPML1 agonist 4.2, D2 PAM -11 and Six1-Eya2 inh 4.
CCOC(=O)C1CCN(C(C(=O)NC2CCCC2)c2ccc(C)cc2)CC1 (configuration not stated) was read as D2 ag -4.6, PINK1 expr mod -0.4%, TRPML1 inh 0, TRPML1 agonist -0.2, D2 PAM -9 and Six1-Eya2 inh -4.
Screening CCc1ccc(OCCCC(=O)Nc2ccc(N3CCOCC3)cc2)cc1 returned D2 ag 0.9, PINK1 expr mod 8.7%, TRPML1 inh 67, TRPML1 agonist 0.1, D2 PAM -9 and Six1-Eya2 inh -14.
For COc1ccc(N2C(=O)CCC(C(=O)O)C2c2ccccc2OC)cc1 (configuration not stated) the results were D2 ag 0.4, PINK1 expr mod -0.6%, TRPML1 inh 22, TRPML1 agonist 1.4, D2 PAM -5 and Six1-Eya2 inh 24.
For Cc1oc(-c2ccccc2)nc1CC(=O)O the results were D2 ag -7.7, PINK1 expr mod 0.4%, TRPML1 inh 0, TRPML1 agonist -0.2, D2 PAM 7 and Six1-Eya2 inh -2.
For COc1ccccc1/C=N\Nc1ccccc1[N+](=O)[O-] the results were D2 ag -1.0, PINK1 expr mod 9.0%, TRPML1 inh 9, TRPML1 agonist 2.4, D2 PAM -7 and Six1-Eya2 inh -19.
For Cc1ccc(S(=O)(=O)N2[C@@H](c3ccccc3)C(C(=O)O)=CC[C@H]2c2ccc(Cl)cc2)cc1 the results were D2 ag -6.8, PINK1 expr mod 1.3%, TRPML1 inh -19, TRPML1 agonist 1.1, D2 PAM -7 and Six1-Eya2 inh 8.
